Bioassay records: PubChem, several laboratories
GALR2 ag = GALR2 receptor agonists, primary screen, cell-based; Galanin receptor type 2 (Homo sapiens), O43603; AID 803, 2007; GALR2-expressing cells, agonist activation read-out; activation, %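 (tested at 5 µM)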; 0.48% of 140,000 active;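 active means above mean plus 3 SD of all compounds, about 5% in these data, not always enough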;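 further: 0% = vehicle buffer wells and 100% = reference agonist at full effect; tested in CHO reporter cells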
Target sequence (O43603 whole entry, looked up): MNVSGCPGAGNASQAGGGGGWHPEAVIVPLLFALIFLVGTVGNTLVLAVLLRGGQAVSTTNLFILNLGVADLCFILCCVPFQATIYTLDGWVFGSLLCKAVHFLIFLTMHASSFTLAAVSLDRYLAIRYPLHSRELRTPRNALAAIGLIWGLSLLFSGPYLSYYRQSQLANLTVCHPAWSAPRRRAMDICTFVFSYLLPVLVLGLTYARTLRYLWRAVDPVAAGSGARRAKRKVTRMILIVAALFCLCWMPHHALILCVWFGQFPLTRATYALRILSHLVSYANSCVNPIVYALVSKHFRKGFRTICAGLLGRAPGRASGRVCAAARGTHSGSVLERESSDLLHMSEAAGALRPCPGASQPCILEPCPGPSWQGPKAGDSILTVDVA
PKD1 inh = inhibitors of human PKD1 kinase, biochemical, fluorescence polarization; Serine/threonine-protein kinase D1 (Homo sapiens), Q15139; PKD1 kinase fluorescence polarization assay; inhibition, %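 (about 10 µM by stock and volumes)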; 0.056% of 200,000 active; AID 797, 2007;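 active means inhibition of 50% or more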;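 further: controls were vehicle for no effect and a reference inhibitor for full effect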
RGS16-Gao HTS = modulators of RGS16 binding to Galphao, primary screen, biochemical, human proteins, multiplexed bead flow cytometry; 0.38% of 220,000 active; binding response (% of control), % at 10 µM; Regulator of G-protein signaling 16 (Homo sapiens) + Guanine nucleotide-binding protein …; bead-based flow cytometry RGS16-Galphao binding, fluorescence; actives lie on both sides;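 active means below 25% or above 175%, edge rows of some plates excepted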;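 further: Galphao activated by GDP with aluminum fluoride before binding; 100% = wells without compound and 0% = beads without RGS; some results beyond the cut were filed as inactive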
Target sequence (O15492 whole entry, looked up): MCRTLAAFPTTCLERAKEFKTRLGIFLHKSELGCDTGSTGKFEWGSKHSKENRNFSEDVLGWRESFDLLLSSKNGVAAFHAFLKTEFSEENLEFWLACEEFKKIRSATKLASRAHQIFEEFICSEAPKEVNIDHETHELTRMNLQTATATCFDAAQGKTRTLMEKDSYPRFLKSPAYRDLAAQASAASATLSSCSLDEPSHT
Target sequence (P09471 whole entry, looked up): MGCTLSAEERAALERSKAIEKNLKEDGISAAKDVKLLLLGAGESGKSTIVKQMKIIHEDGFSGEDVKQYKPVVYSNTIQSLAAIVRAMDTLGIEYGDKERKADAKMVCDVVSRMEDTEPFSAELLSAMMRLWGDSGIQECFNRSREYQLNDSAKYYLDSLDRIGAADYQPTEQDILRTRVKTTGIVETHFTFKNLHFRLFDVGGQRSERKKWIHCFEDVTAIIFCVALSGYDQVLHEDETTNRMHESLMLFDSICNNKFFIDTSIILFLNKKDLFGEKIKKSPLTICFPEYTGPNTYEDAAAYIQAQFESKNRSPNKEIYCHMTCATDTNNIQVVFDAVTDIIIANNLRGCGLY
HSV replic up = enhancers of HSV replication in host cells, fold increase, host cell viability; HSV replication augmentation in cells; maximum fold increase; 0.005% of 220,000 active;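 active means peak rise of 1.5-fold or more in the series; tested in PC3 cells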;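 further: first round at 10 µM; read as green reporter fluorescence; hits show the peak of a series up to 25 µM; 1 = signal of infected wells without compound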
INS promoter inh = inhibitors of insulin promoter-driven GFP, primary screen, imaging, TRM-6 cells (human fetal islet line), eGFP reporter, cell count; reporter expression induced with tamoxifen; inhibition, % at 2 µM; 0.9% of 130,000 active;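 active means inhibition above the mean plus 3 SD, with well images judged a real hit on visual review, cut at about 60% in these data, passing the limit was not always enough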
INS promoter inh cell count = further read-out of INS promoter inh, marked with its call; normalized cell count, %; measured here: cell count, toxicity; reference of the scale not given here;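 cells exposed to compound for 48 h; stained nuclei by imaging scaled within each plate; lower means fewer cells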
HSV replic up primary fold = also measured in HSV replic up; calls as there; fold increase; compound at 10 µM; measured here: primary screen fold increase 10 uM; tested in PC3 cells;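 GFP signal in the first replicate; 1 = infected wells without compound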
* marks the source's active call; other numbers are inactive results; i = inactive; / = no result given.

SMILES	GALR2 ag	PKD1 inh	RGS16-Gao HTS	HSV replic up	HSV replic up primary fold	INS promoter inh	INS promoter inh cell count
Cc1ccc(N(CCC#N)C(=O)CSc2ccc3c(c2)OCCO3)cc1	-0.5	1.4	97.7	i	1.04	23.3	116.0
CCOc1cc(NC(=S)Nc2cccc(OC)c2)c(OCC)cc1NC(=O)c1ccc(C)cc1	-0.2	-6.7	94.8	i	0.68	-2.4	121.1
CC(=O)Nc1ccc(S(=O)(=O)NC2(C(F)(F)F)NC(=O)N(c3ccc(Cl)cc3)C2=O)cc1 (configuration not stated)	-2.2	2.4	116.5	i	0.93	/	/
COc1c(Cl)cc(Cl)cc1C(=O)Nc1ccccc1N1CCN(C(C)=O)CC1	-1.6	1.6	/	i	1.05	38.5	98.8
Cn1c(-c2ccc3c(c2)OCO3)cnc1NCc1cccc(Cl)c1	-0.7	-1.8	99.3	i	0.71	/	/
Cc1cc(C=C2C(=O)c3ccccc3C2=O)c(C)n1-c1ccc(Cl)cc1	-1.9	-7.4	94.7	/	/	/	/
COc1ccc(-c2cc(CCCC(=O)NCCc3cc(OC)ccc3OC)no2)cc1	0.0	11.1	99.5	/	/	/	/
CC(C)c1ccc(N2C(=O)CC(Sc3ncn[nH]3)C2=O)cc1 (configuration not stated)	-1.7	-0.6	100.0	i	0.987	57.1	45.2
Cc1ccc(NC2=NC(c3ccccc3)n3c(nc(C)cc3=O)N2)c(C)c1 (configuration not stated)	-3.4	-5.6	96.3	i	0.99	-22.2	122.8
CCOC(=O)N1CCN(C(=O)CCc2c(C)nc3nc(C)nn3c2C)CC1	-1.4	-10.1	99.3	i	0.89	/	/
CCN=C1S/C(=C\c2ccc(N3CCOCC3)cc2C)C(=O)N1CC	0.6	-10.4	107.4	i	0.76	-51.4	134.8
Cc1c(NC(=O)c2ccc(F)cc2)c(=O)n(-c2ccccc2)n1C	-2.8	8.5	99.7	i	0.94	/	/
CCOc1ccccc1N(C)C(=O)C1CCN(S(=O)(=O)c2cccc3nonc23)CC1	0.3	-6.8	103.2	i	1.02	30.4	93.2
CCOc1ccc(CN2CCN(S(=O)(=O)c3ccc(NC(C)=O)cc3)CC2)cc1OC	0.1	-2.4	104.9	i	1.02	14.3	87.1
CC1(C(=O)O)CCC(C(=O)N2CCOCC2)C1(C)C (configuration not stated)	-3.2	2.2	97.5	i	1.01	35.7	78.2
O=C(c1coc(=O)c(Br)c1)N1CCCc2ccccc21	-2.7	-1.0	82.2	i	0.99	/	/
CC(C)N1C(=O)N(c2ccccc2)C(C)(O)CC1(C)C (configuration not stated)	-0.8	3.7	110.2	i	1.11	/	/
Cc1ccc(C)c2c1cc(C)c1nnc(SCC(=O)Nc3nc4c(s3)CCCC4)n12	-3.5	4.5	103.0	i	0.77	56.2	117.5
Cc1nc(NC(=O)CSc2nnc(N)s2)c(Cl)cc1Cl	/	5.7	99.4	i	1.03	/	/
CC(C)N(Cc1nc(-c2ccccc2)no1)C(=O)c1ccc2c(c1)OCO2	1.6	1.1	101.0	i	0.85	-37.1	85.6

Ordered by molar mass (high to low): some entries from above
SMILES	GALR2 ag	PKD1 inh	RGS16-Gao HTS	HSV replic up	HSV replic up primary fold	INS promoter inh	INS promoter inh cell count
CCOc1cc(NC(=S)Nc2cccc(OC)c2)c(OCC)cc1NC(=O)c1ccc(C)cc1	-0.2	-6.7	94.8	i	0.68	-2.4	121.1
CCOc1ccccc1N(C)C(=O)C1CCN(S(=O)(=O)c2cccc3nonc23)CC1	0.3	-6.8	103.2	i	1.02	30.4	93.2
Cc1ccc(C)c2c1cc(C)c1nnc(SCC(=O)Nc3nc4c(s3)CCCC4)n12	-3.5	4.5	103.0	i	0.77	56.2	117.5
COc1ccc(-c2cc(CCCC(=O)NCCc3cc(OC)ccc3OC)no2)cc1	0.0	11.1	99.5	/	/	/	/
CCOC(=O)N1CCN(C(=O)CCc2c(C)nc3nc(C)nn3c2C)CC1	-1.4	-10.1	99.3	i	0.89	/	/
CC(C)N(Cc1nc(-c2ccccc2)no1)C(=O)c1ccc2c(c1)OCO2	1.6	1.1	101.0	i	0.85	-37.1	85.6
CCN=C1S/C(=C\c2ccc(N3CCOCC3)cc2C)C(=O)N1CC	0.6	-10.4	107.4	i	0.76	-51.4	134.8
Cc1nc(NC(=O)CSc2nnc(N)s2)c(Cl)cc1Cl	/	5.7	99.4	i	1.03	/	/
O=C(c1coc(=O)c(Br)c1)N1CCCc2ccccc21	-2.7	-1.0	82.2	i	0.99	/	/
Cc1c(NC(=O)c2ccc(F)cc2)c(=O)n(-c2ccccc2)n1C	-2.8	8.5	99.7	i	0.94	/	/
CC(C)N1C(=O)N(c2ccccc2)C(C)(O)CC1(C)C (configuration not stated)	-0.8	3.7	110.2	i	1.11	/	/
CC1(C(=O)O)CCC(C(=O)N2CCOCC2)C1(C)C (configuration not stated)	-3.2	2.2	97.5	i	1.01	35.7	78.2

Carrying on.
SMILES	GALR2 ag	PKD1 inh	RGS16-Gao HTS	HSV replic up	HSV replic up primary fold	INS promoter inh	INS promoter inh cell count
O=C1C=C(N2CCCCCC2)C2(CCCCC2)O1	/	-5.0	102.8	i	1.09	/	/
CS(=O)(=O)N(CC(=O)Nc1ccc(F)cc1F)c1cccc([N+](=O)[O-])c1	-2.2	4.1	98.2	i	0.98	-20.0	72.8
Cc1cccc(NC(=O)c2onc3c2CCCC3)c1C	-0.2	-7.9	104.3	i	0.96	/	/
Cc1n[nH]c(=S)n1/N=C/c1ccccc1OCc1ccc(Cl)cc1	-0.9	-2.2	97.3	i	0.91	-86.2	115.7
OCCN1CCN(c2nc(-c3ccccc3)c3cc(Cl)ccc3n2)CC1	19.1*	6.2	96.4	i	0.68	-50.0	71.2
CCSc1oc(-c2ccco2)nc1S(=O)(=O)c1ccc(F)cc1	-1.0	-0.1	104.7	i	0.93	-14.8	126.7
CCOc1ncccc1C(=O)N1CCN(S(=O)(=O)c2ccc(Br)cc2Cl)CC1	/	-1.3	98.9	i	0.91	/	/
CN(CCC#N)C(=O)COC(=O)c1ccc2c(=O)n3c(nc2c1)CCC3	/	-1.3	109.2	i	1.07	63.0	31.1
CCN(c1ccccc1)S(=O)(=O)c1cnc[nH]1	1.0	-3.0	96.6	i	0.81	0.0	123.6
Cc1cc(NC(=O)c2cccc(S(=O)(=O)N3CCOCC3)c2)no1	-1.5	-3.2	101.0	i	0.94	29.6	109.3
CCN(CC(=O)Nc1cccc(OC)c1)c1ncnc2sc(C)c(C)c12	-1.9	-13.4	98.6	i	0.98	40.0	139.9
CNC(=O)CN(c1ccc(F)cc1)S(=O)(=O)c1cc(C)ccc1OC	-0.9	-4.6	107.1	i	0.84	53.9	93.3
NS(=O)(=O)c1ccc(NC(=O)COC(=O)c2cc([N+](=O)[O-])ccc2Cl)cc1	/	/	93.8	i	0.88	/	/
COC(=O)C(C)Sc1nc(NCc2ccccc2)nc(N(C)C)n1 (configuration not stated)	/	3.8	101.3	i	0.95	42.9	71.5
Cc1ccccc1OCCn1c(CCNC(=O)C(C)C)nc2ccccc21	0.2	-4.1	96.0	i	1.15	/	/
Cc1ccc(-c2nnn(CC(=O)N(CC3CCCO3)C(C(=O)NC3CCCC3)c3ccc(O)cc3)n2)o1 (configuration not stated)	/	-3.8	103.5	i	0.84	-6.7	132.1
O=C(NNC(=S)Nc1ccccc1)c1cccc(Br)c1	-1.9	0.8	209.6	i	0.87	-18.9	60.9
COc1cc(Cl)c(C)cc1NC(=O)c1ccc(S(C)(=O)=O)cc1	/	4.3	98.7	i	0.92	/	/
COc1ccc(NC(=O)CN(C)S(=O)(=O)c2ccccc2)c([N+](=O)[O-])c1	-0.8	-9.2	99.7	i	0.79	46.7	49.3
COc1ccc(Nc2nc(NC(C)(C)C)nc(N3CCOCC3)n2)c(OC)c1	/	-3.3	97.9	i	0.92	-5.3	78.1
O=C(Nc1ccncc1)c1sc2ccccc2c1Cl	/	1.1	97.1	i	0.92	/	/
COc1nn(CC(=O)N2N=C(C)CC2(O)C(F)F)cc1[N+](=O)[O-] (configuration not stated)	0.0	-4.8	111.0	i	0.89	0.0	134.4
Cc1ccc(C)c(CSc2nc(-c3ccco3)nc3c2c(=O)n(C)c(=O)n3C)c1	/	9.6	108.9	i	0.71	/	/
C(=C\c1ccccc1)/C=N/Nc1nc(N2CCOCC2)nc(N2CCOCC2)n1	-2.7	0.9	105.1	i	0.84	/	/
O=C(Nc1nnc(CCS(=O)(=O)c2ccc3ccccc3c2)s1)c1cccs1	-1.1	1.8	86.9	i	1.04	/	/
Cn1c(N/N=C\c2cccc(O)c2)cc(=O)n(C)c1=O	-0.8	10.3	100.8	i	1.08	-43.3	76.1
Cc1cc(C)cc(NC(=S)NC2CC3CCC(C2)N3Cc2ccco2)c1 (configuration not stated)	-2.2	5.0	101.9	/	/	/	/
Cc1ccc(C2=Nc3ccccc3NC(C)(c3ccc(C)o3)C2)o1 (configuration not stated)	-1.5	-10.6	91.5	i	1.11	-13.2	133.8
Cc1ccc(N2CC(=O)N(NC(=O)c3sc4nc(C)cc(C)c4c3N)CC2=O)cc1	/	/	93.2	i	0.99	/	/
COC(=O)c1c(NC(=O)COC(=O)CNC(=O)C2CCCCC2)sc(C)c1C	0.8	-3.1	100.6	i	0.9	-30.8	97.8
COc1ccc(C(=O)N2CCC(N3CCN(c4ccccc4)CC3)CC2)cc1	-0.8	0.9	110.2	i	0.91	/	/
CCC(=O)N1CCc2cc(S(=O)(=O)NC(Cc3ccccc3)C(=O)NC3CCCCC3)ccc21 (configuration not stated)	-2.2	-10.0	105.0	i	0.93	-316.7	81.6
Cc1nc(-c2ccccc2)sc1C1(C)CC(c2ccc([N+](=O)[O-])cc2)=NO1 (configuration not stated)	/	/	87.0	i	0.97	/	/
O=C1OCCN1CCNCc1cn(-c2ccc(F)cc2)nc1-c1ccccc1Cl	/	-3.0	111.0	i	0.99	26.7	123.8
O=C(NCc1cccnc1)c1ccc(-c2ccccc2[N+](=O)[O-])o1	-1.2	-7.3	108.0	i	1	-13.3	109.1
Cc1[nH]c(=O)[nH]c(=O)c1NS(=O)(=O)c1ccccc1	0.1	-6.4	113.6	i	1.25	/	/
C=CCOc1cccc(CNn2cn[nH]c2=S)c1	-1.5	-11.8	112.2	/	/	-8.3	118.6
Oc1cccc(CN2CCCCC2)c1	-1.1	-4.5	98.7	i	1.05	-8.3	87.7
CSc1nnc(Cn2c(=O)sc3ccccc32)n1-c1ccccc1C	-0.9	-6.1	101.1	i	1.2	/	/
O=C(CN1CCN(C2CCCCC2)CC1)c1ccc2cc[nH]c2c1	-2.9	-13.4	100.2	/	/	/	/
CCN(CC)S(=O)(=O)c1ccc(/C=C/C(=O)OCC(=O)N(C(C)C)C(C)C)cc1	/	0.1	98.6	i	0.92	/	/
CN1CCN(c2ccccc2NC(=O)c2ccc(-c3cccc([N+](=O)[O-])c3)o2)CC1	2.5	51.8*	95.5	i	0.61	-20.0	101.9
Cn1c(=O)c2c(O)c([N+](=O)[O-])c(=O)n(C)c2n(C)c1=O	/	/	91.3	i	0.9	/	/
Cc1ccc(/C=C(\NC(=O)c2ccccc2)C(=O)N2CCCC2C(=O)O)cc1 (configuration not stated)	/	-4.6	99.4	i	0.95	/	/
CCN(CC)S(=O)(=O)c1cccc(-c2n[nH]c(=S)n2/N=C/c2ccc(OC)cc2)c1	-1.3	-8.4	100.8	i	0.89	30.8	107.4
O=C(NCC1CCCO1)c1cccnc1Nc1ccccc1F (configuration not stated)	-0.2	-7.4	99.6	i	0.97	/	/
CC(C)NC(=O)NC(=O)COC(=O)c1ccc(F)cc1F	-1.0	-1.8	103.5	i	0.99	/	/
CC(Sc1cccc[n+]1[O-])C(=O)Nc1ccc(Oc2ccccc2)cc1 (configuration not stated)	/	-0.4	97.7	i	1.06	/	/
S=c1[nH]cnc2scc(-c3ccc(Br)cc3)c12	/	1.8	96.2	i	0.82	40.0	160.4
